Bioassay records (PubChem)
Measles inh: inhibitors of measles virus growth in infected cells; infected Vero cells, GFP fluorescence, 64 h; hits give low values; z-score (concentration not given with the values); 33,000 compounds, 0.1% hits; AID 745;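 active = z-score under -3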;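 note: score is relative to mean and SD of the compound wells of a plate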
* = called active by the depositor. Some of the compounds tested; count on the stated rates, not on these rows.

Sample of the layout:
SMILES | Measles inh
O=C1CC(NCc2ccc3c(c2)OCO3)C(=O)N1c1ccc(-c2nc3ccccc3o2)cc1 (stereo unspecified) | 0.49
O=C(NCc1ccncc1)C(=O)NCc1ccncc1 | 0.42
COc1ccc(NC(=O)C2(S(=O)(=O)c3ccc(C)cc3)CC2)c(OC)c1 | 1.1

Main list (from the top)
SMILES | Measles inh
O=C1CC(NCc2ccc3c(c2)OCO3)C(=O)N1c1ccc(-c2nc3ccccc3o2)cc1 (stereo unspecified) | 0.49
O=C(NCc1ccncc1)C(=O)NCc1ccncc1 | 0.42
COc1ccc(NC(=O)C2(S(=O)(=O)c3ccc(C)cc3)CC2)c(OC)c1 | 1.1
COc1ccc(C(=O)Nc2ccc(-c3nc4ncccc4o3)cc2)cc1OC | -0.27
CC(=O)c1c(C)nn(C(=O)N2CCOCC2)c1C | 0.74
Cc1ccc(C)c(NC(=O)c2cc3nc(-c4ccc5c(c4)OCO5)cc(C(F)(F)F)n3n2)c1 | 1.1
O=C(CSc1c2c(nc3ccccc13)CCC2)NCCC1=CCCCC1 | 0.39
CCOC(=O)c1c(N)c(C#N)c2n1CCCC2 | 0.65
CCC1CCCCN1S(=O)(=O)c1ccc2c(c1)n(C)c(=O)c(=O)n2C (stereo unspecified) | -0.91
COc1ccc(Cl)cc1NC(=O)C1c2cc(OC)c(OC)cc2C(=O)N(C)C1c1cccnc1 (stereo unspecified) | -0.46
CC1(C)CC(=O)C2=C(C1)Nc1nc(C(F)(F)F)nn1C2c1cccc(Cl)c1 (stereo unspecified) | -0.72
COc1cc([N+](=O)[O-])ccc1-c1ccc(C=Cc2cc(C(F)(F)F)[nH]c(=O)n2)o1 | -0.64
COc1ccc([N+](=O)[O-])cc1N1C(=O)C2C3C=CC(O3)C2C1=O (stereo unspecified) | -2.1
Oc1ccc(Br)cc1C=Nc1nc(-c2cccc3ccccc23)cs1 | -1.1
O=C(Nc1nccs1)c1ccc2c(c1)C(=O)N(c1cccc(C(=O)c3ccccc3)c1)C2=O | -0.96
c1ccc2c(c1)CC(CN1CCOCC1)O2 (stereo unspecified) | 0.98
COC(=O)c1ccc(SCC(=O)NC2CCCC(C)C2C)c([N+](=O)[O-])c1 (stereo unspecified) | -0.07
O=S(=O)(NCCOC12CC3CC(CC(C3)C1)C2)c1cccc2nsnc12 | -0.47
CC(O)CNc1cc(Cl)ccc1[N+](=O)[O-] (stereo unspecified) | 2.1
COc1ccc(NC(=O)c2ccccc2NC(=O)c2ccc(C)cc2)cc1 | -1.1
COc1ccc2nc(SCC(=O)N3CCc4ccccc4C3)nc(C)c2c1 | 0.06
CC(C)C(C(=O)Nc1ccc(S(=O)(=O)Nc2ncccn2)cc1)N1C(=O)c2ccccc2C1=O (stereo unspecified) | -0.48
CCCCOC(=O)c1c(C)oc2c1cc(NS(=O)(=O)c1ccc3c4c(cccc14)C(=O)N3)c1ccccc12 | 0.37
CCOc1ccc(NC(=O)Nc2c(C)n(C)n(-c3ccccc3)c2=O)cc1 | -0.19
Cc1ccc2nc(C)cc(Nc3cccc(Cl)c3)c2c1 | -0.41
COc1ccccc1Nc1cc(C(=O)NCc2ccccc2Cl)c2ccccc2n1 | 0.02
Cc1cccc(-n2c(CNC(=O)c3ccc(S(=O)(=O)N4CCCC4)cc3)n[nH]c2=S)c1 | 0.44
O=c1[nH]c(-c2ccc(OCCOCCOc3ccccc3)cc2)nc2sc3c(c12)CCCC3 | 1.1
CCn1c(SCC(=O)N2CCCCC2)nc2c(c1=O)SC(C)C2 (stereo unspecified) | -0.46
CCC(=O)Oc1ccc2oc(C)c(C(=O)OCCOC)c2c1 | -0.12
COc1ccc(N2C(=O)CCC(C(=O)Nc3ccc(C)cc3Br)C2c2ccc(F)cc2)cc1 (stereo unspecified) | 0.02
O=C(CNS(=O)(=O)c1cccs1)N1CCN(C(=O)c2ccco2)CC1 | 1.9
Cc1nn(C(C)(C)C)c(OC(=O)c2ccccc2I)c1S(=O)(=O)c1ccccc1 | -0.21
CCn1c(=O)n(CC(=O)Nc2ccccn2)c(=O)c2ccccc21 | -0.46
COc1ccc(C2Oc3c(OC)cccc3C3CC(c4ccc(F)cc4)=NN32)cc1OC (stereo unspecified) | 0.96
OCCOCCNc1ncnc2sc3c(c12)CCCC3 | 0.54
CCN1C(=O)c2cccc3c(NC(=O)c4cccc(F)c4)ccc1c23 | -1.1
CC1=C(C(=O)OC2CCCC2)C(c2ccccc2)C2=C(CC(C)(C)CC2=O)N1 (stereo unspecified) | -1.1
COc1ccc(C2Nc3ccc(S(=O)(=O)Nc4ccc(C)c(C)c4)cc3C3C=CCC32)cc1 (stereo unspecified) | -0.28
CCOc1cc(C(=O)Nc2cccc3c2C(=O)c2ccccc2C3=O)cc(OCC)c1OCC | -0.45
CCCCNC(=O)c1cc(-c2ccc(OC)cc2)nc2ccccc12 | 0.15
CCOCCCNC(=O)c1cc(Nc2ccccc2)nc2ccccc12 | -0.55
CCC(C)NC(=O)Cn1c(=O)n(-c2cc(OC)cc(OC)c2)c(=O)c2sccc21 (stereo unspecified) | 2.9
COCCCNC(=O)c1cc(C(=O)OC)cc([N+](=O)[O-])c1 | 3.2
O=C(COc1ccccc1)Nc1ccc(Cl)c(-c2nc3ccccc3o2)c1 | -0.34
CC(=O)Nc1cc(C(=O)NCCc2ccccc2)ccc1S(=O)(=O)c1ccc(C)cc1 | 0.45
COc1ccc(C2C3=C(CC(c4ccc(C)cc4)CC3=O)Nc3ccccc3N2C(C)=O)cc1 (stereo unspecified) | -0.04
CN(Cc1ccccc1)S(=O)(=O)c1ccc(F)c(C(=O)Nc2cc(C(F)(F)F)ccc2Cl)c1 | 2
CCOC(=O)c1c(NC(=O)c2ccc(C)c([N+](=O)[O-])c2)sc(C(=O)Nc2ccccc2F)c1C | -0.62
COc1ccc(NC(=O)C2C3CCCC2C3c2ccccc2)cc1 (stereo unspecified) | -2.1

Next compounds follow.
SMILES | Measles inh
O=C(NCCSc1ccccc1)c1ccc(CN2CCc3ccccc3C2)cc1 | 0.49
O=C(COc1ccccc1)NCCSc1nc2ccccc2s1 | -0.35
CN(C)C(=O)c1cn(-c2ccccc2)nc1-c1cccnc1 | -0.47
C1C2CC3CC1CC(C2)C3NC1C2CC3CC(C2)CC1C3 (stereo unspecified) | -0.02
Cc1nc2ccccn2c1-c1csc(NCc2ccccc2)n1 | 1.8
Cc1ccc(NC2=C(n3nnc4ccccc43)C(=O)c3ccccc3C2=O)cc1 | -0.86
COc1ccc(N2CCN(CCCn3c(=S)[nH]c4c(sc5ccccc54)c3=O)CC2)cc1 | -0.3
CCC1(CC)NC(=S)N(c2ccc(C)cc2)N1 | -0.36
Cc1c(Cc2ccccc2)sc(NC(=O)c2cccs2)c1C(N)=O | -0.76
COc1ccc(C2C(C(N)=O)=C(C)Nc3nc(SCc4ccccc4)nn32)cc1 (stereo unspecified) | -0.54

Six compounds picked at random from those above:
SMILES | Measles inh
Cc1c(Cc2ccccc2)sc(NC(=O)c2cccs2)c1C(N)=O | -0.76
CCC1(CC)NC(=S)N(c2ccc(C)cc2)N1 | -0.36
C1C2CC3CC1CC(C2)C3NC1C2CC3CC(C2)CC1C3 (stereo unspecified) | -0.02
O=C(COc1ccccc1)NCCSc1nc2ccccc2s1 | -0.35
COc1ccc(N2CCN(CCCn3c(=S)[nH]c4c(sc5ccccc54)c3=O)CC2)cc1 | -0.3
Cc1nc2ccccn2c1-c1csc(NCc2ccccc2)n1 | 1.8

(listing goes on)
SMILES | Measles inh
CCCCNC(=O)c1cc2c(C)nn(-c3ccccc3)c2s1 | 0.49
c1ccc2c(c1)Nc1ccc3ccccc3c1S2 | -0.03
CC1CCN(c2ccc(S(=O)(=O)N3CCC(C)CC3)cc2NC(=O)Nc2ccc(Cl)cc2)CC1 | 1.8
CC(=O)Nc1cc(Br)c2c(c1)OCCO2 | 0.17
Cn1c(C(=O)O)cc2c(=O)oc3ccccc3c21 | 1.1
CCCS(=O)(=O)N1CCC(C(=O)NCc2cccc(OC)c2)CC1 | -0.54
Cc1ccc(Nc2c(-c3ccco3)nc3ccccn23)cc1 | -0.01
COc1cc(OC)cc(C(=O)N2CCc3cc(OC)c(OC)cc3C2COc2ccc3c(C)cc(=O)oc3c2)c1 (stereo unspecified) | 0.15
O=C(c1cccnc1)N1CCN(C2CCN(Cc3ccccc3)CC2)CC1 | 0.28
O=C(CSc1nc(O)cc(=O)[nH]1)N1CCOCC1 | 0.55
CCc1c(-c2ccccc2)n(CCO)c2nc3c(c(=O)n(C)c(=O)n3C)n12 | 1.2
O=C(c1cccn2c(=O)c3ccc(Cl)cc3nc12)N1CCN(c2cccc(Cl)c2)CC1 | -0.96
CCCOC(=O)C1=C(C)NC2=C(C(=O)CC(c3ccccc3)C2)C1c1ccc(N(CC)CC)cc1 (stereo unspecified) | -0.15
CCOC(=O)CSc1nc2c(cnn2-c2ccc(C)cc2)c(=O)[nH]1 | -0.67
COc1ccc(C2CC(=O)Nc3ncnn32)cc1 (stereo unspecified) | 4.7
O=C(NCCCN1CCOCC1)c1nn2c(c1Cl)NC(c1ccco1)CC2C(F)(F)F (stereo unspecified) | -0.42
COc1cc2c(C(=O)N(C)c3ccccc3Cl)cn(C)c(=O)c2cc1OC | 0.65
COc1ccc2oc(=O)c(-c3nc4ccccc4[nH]3)cc2c1 | 0.29
Cc1cccn2c(=O)c3cc(C(=O)NCC4CCCO4)c(=N)n(C4CCCC4)c3nc12 (stereo unspecified) | 0.47
C1=CC2CC1CC2CN1CCN(Cc2ccncc2)CC1 (stereo unspecified) | -0.28
O=C(CCn1c(=O)[nH]c2ccccc2c1=O)NCc1ccccc1 | 0.16
CCOc1ccc(C2C(C(=O)OC(C)C)=C(C)N=C3SCCC(=O)N32)cc1 (stereo unspecified) | 0.74
CCOC(=O)C(C)OC(=O)c1ccc(C)c([N+](=O)[O-])c1 (stereo unspecified) | -0.14
CCOc1ccc2nc(C)cc(Nc3ccccc3OC)c2c1 | -0.09
COc1cc2c(cc1OC)C(COc1ccc3c(C)cc(=O)oc3c1)N(C(=O)c1ccc(C)c(C)c1)CC2 (stereo unspecified) | -0.61
COc1cccc(C2=CC(c3cccc(F)c3)n3ncnc3N2)c1 (stereo unspecified) | 0.12
O=C(CCN1CCOCC1)Nc1ccccc1F | 1.5
Cc1ccc(NC(=O)c2ccc(F)c(S(=O)(=O)N3CCC(C)CC3)c2)cc1F | 0.26
CC(C)(C)C1CCC(OC(=O)Cn2cnc([N+](=O)[O-])n2)CC1 (stereo unspecified) | -1.6
O=C(CC(C(=O)N1CCc2ccccc21)n1ccnc1)NCCc1ccccc1 (stereo unspecified) | -0.66
Clc1ccc(C2=Nn3c(nnc3-c3ccc4c(c3)OCO4)SC2)cc1 | -0.91
Cc1cccc(Cn2c(SCCCO)nc3c2c(=O)n(C)c(=O)n3C)c1 | -0.15
CCC1CCCCN1CCCNC(=O)C1CCN(S(C)(=O)=O)CC1 (stereo unspecified) | -0.09
CCOc1cccc2cc(-c3cn4c(n3)sc3ccccc34)c(=O)oc12 | -0.47
Cc1ccc(C)c(NS(=O)(=O)c2cc(S(=O)(=O)Nc3cc(C)ccc3C)c3cccc4c3c2NC4=O)c1 | -0.19
CCOC(=O)c1c(NC(=O)COc2cccc(Br)c2)sc(C)c1C | 0.09
COc1ccc(-c2cc(C(F)(F)F)nc(S(C)(=O)=O)n2)cc1OC | 1.1
COc1ccccc1Nc1ncc(C(=O)NC2CCCC(C)C2C)c2ccccc12 (stereo unspecified) | -1.1
O=C(Nc1ccccc1I)c1ccccc1Cl | 1.4
COc1cc2c(cc1OC)C(COc1ccc3c(C)cc(=O)oc3c1)N(C(=O)c1ccc(Br)o1)CC2 (stereo unspecified) | -0.43
COc1ccc(OC)c2[nH]c(=O)c(CCNC(=O)Cc3ccccc3)cc12 | -0.45
CCCn1cc(SCC(=O)Nc2ccc(C)cc2)c2ccccc21 | 1.9
COc1ccc(-n2c(=O)c3ccccc3c3ccccc3c2=O)c(OC)c1 | 0.6
N#Cc1nc(COc2ccccc2Cl)oc1NCc1ccco1 | -0.31
Cc1cc(C)c(NC(=O)Cn2c(=O)n(CCc3ccccc3)c(=O)c3ccccc32)c(C)c1 | 2.6
COC(=O)c1c(-c2ccc(F)cc2)csc1NC(=O)C1CCCCC1C(=O)O (stereo unspecified) | -0.71
CCCCNc1nc2c(c(=O)n(C)c(=O)n2C)n1Cc1cccc(Cl)c1 | 0.93
O=C(Cc1ccccc1)Nc1nnc(-c2ccc([N+](=O)[O-])cc2)s1 | 0.24
CC1CCCCN1C(=O)CSc1nnc2sc3ccccc3n12 (stereo unspecified) | -0.73
CCCCN(C)CCNC(=O)Cn1c(=O)[nH]c2ccccc2c1=O | -0.19

Following part:
SMILES | Measles inh
Cc1cnc(NC(=O)c2c(O)c3cccc4c3n(c2=O)CCC4)s1 | 1.8
COc1cc2c(cc1OC)C(c1ccccc1)=NC1(CCCC1)C2 | -0.07
CC(=O)N1N=C(C)CC1c1ccc(OCc2ccccc2)cc1 (stereo unspecified) | -0.24
CC(C)(C)c1ccc(C(=O)Nc2ccc(N3CCOCC3)c(Cl)c2)cc1 | -1.1
O=C(NCCc1ccccc1)c1ccccc1-n1cnc2ccccc2c1=O | 0.14
Cc1cccc(C)c1OCC(=O)Nc1ccc(N(C)C)cc1 | 0.58
CCCc1ccc(OCCNC(=O)C(C)N2C(=O)c3ccccc3C2=O)cc1 (stereo unspecified) | 1.6
O=c1oc2cc(O)ccc2cc1-c1nnc(NC2CCCCC2)s1 | 8.6
CC1CCN(c2cc(C#N)c(C#N)cc2[N+](=O)[O-])CC1 | -0.22
Cc1ccccc1CS(=O)(=O)c1ccc(C(=O)N2CCCCCC2)cc1[N+](=O)[O-] | 0.5
O=C(Cn1c(=O)n(Cc2ccccc2)c(=O)c2c3c(sc21)CCCC3)NCc1ccccc1 | 0.13
COc1ccc2nc(C(=O)O)sc2c1 | 0.15
Cc1cccc(C(=O)Nc2nnc(CCc3ccccc3)s2)c1 | -0.53
